# GALR2 ag – activates the human galanin receptor 2; O43603; GALR2-expressing cells, agonist activation read-out; activation, %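 (tested at 5 µM)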; 140,000 compounds, 0.48% hits; AID 803;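 active means above mean plus 3 SD of all compounds, about 5% in these data, not always enough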;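 further: 0% = vehicle buffer wells and 100% = reference agonist at full effect; tested in CHO reporter cells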
# Target sequence (O43603 whole entry, looked up): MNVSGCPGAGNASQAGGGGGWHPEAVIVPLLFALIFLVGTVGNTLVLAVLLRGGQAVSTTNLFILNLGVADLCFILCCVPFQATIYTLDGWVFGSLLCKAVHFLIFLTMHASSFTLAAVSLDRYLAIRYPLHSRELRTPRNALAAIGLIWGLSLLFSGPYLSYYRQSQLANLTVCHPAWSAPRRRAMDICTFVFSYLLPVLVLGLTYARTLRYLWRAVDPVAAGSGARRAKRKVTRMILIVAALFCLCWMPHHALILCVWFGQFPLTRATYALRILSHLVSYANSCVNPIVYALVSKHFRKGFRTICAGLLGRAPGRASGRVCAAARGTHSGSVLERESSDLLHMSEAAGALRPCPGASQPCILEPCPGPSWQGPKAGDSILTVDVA
# RGS16-Gao HTS – RGS16-Galphao interaction regulator (human) | 220,000 compounds, 0.38% hits | bead-based flow cytometry RGS16-Galphao binding, fluorescence; actives lie on both sides | AID 1441 | O15492+P09471 | binding response (% of control), % at 10 µM;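 active means below 25% or above 175%, edge rows of some plates excepted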;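 further: Galphao activated by GDP with aluminum fluoride before binding; 100% = wells without compound and 0% = beads without RGS; some results beyond the cut were filed as inactive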
# Target sequence (O15492 whole entry, looked up): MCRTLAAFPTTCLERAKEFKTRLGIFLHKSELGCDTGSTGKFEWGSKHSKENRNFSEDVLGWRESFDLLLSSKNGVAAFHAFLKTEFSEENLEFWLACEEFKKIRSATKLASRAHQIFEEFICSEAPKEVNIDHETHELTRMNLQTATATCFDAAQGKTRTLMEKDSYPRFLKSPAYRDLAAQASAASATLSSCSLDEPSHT
# Target sequence (P09471 whole entry, looked up): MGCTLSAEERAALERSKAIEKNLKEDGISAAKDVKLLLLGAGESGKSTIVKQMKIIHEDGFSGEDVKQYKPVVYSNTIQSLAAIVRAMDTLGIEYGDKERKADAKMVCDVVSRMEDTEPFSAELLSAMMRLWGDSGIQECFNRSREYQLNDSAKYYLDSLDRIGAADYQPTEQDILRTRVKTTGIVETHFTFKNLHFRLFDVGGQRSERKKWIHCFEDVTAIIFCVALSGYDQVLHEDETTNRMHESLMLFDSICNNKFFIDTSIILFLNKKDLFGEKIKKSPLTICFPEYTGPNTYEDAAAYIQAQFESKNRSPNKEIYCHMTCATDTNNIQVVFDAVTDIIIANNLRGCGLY
# Insulin prom inh – TRM-6 insulin promoter activity inhibition | TRM-6 cells (human fetal islet line), insulin promoter-eGFP reporter, imaging; reporter expression induced with tamoxifen | inhibition, % at 2 µM | 130,000 compounds, 0.9% hits;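 active means inhibition above the mean plus 3 SD, with well images judged a real hit on visual review, cut at about 60% in these data, passing the limit was not always enough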
# PKD1 inh – blocks activity of human protein kinase D1; Q15139; inhibition, %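 (about 10 µM by stock and volumes)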; PKD1 kinase fluorescence polarization assay; 200,000 compounds, 0.056% hits; AID 797;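 active means inhibition of 50% or more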;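 further: controls were vehicle for no effect and a reference inhibitor for full effect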
# HSV augment – increases HSV replication in cells | 220,000 compounds, 0.005% hits | HSV replication augmentation in cells, fold increase | maximum fold increase;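 active means peak rise of 1.5-fold or more in the series; tested in PC3 cells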;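 further: first round at 10 µM; read as green reporter fluorescence; hits show the peak of a series up to 25 µM; 1 = signal of infected wells without compound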
# Insulin prom inh cell count – further read-out of Insulin prom inh, marked with its call; normalized cell count, %; measured here: cell count, toxicity; reference of the scale not given here;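 cells exposed to compound for 48 h; stained nuclei by imaging scaled within each plate; lower means fewer cells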
# HSV augment primary fold – recorded beside HSV augment, whose call it bears; fold increase; compound at 10 µM; measured here: primary screen fold increase 10 uM; tested in PC3 cells;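 GFP signal in the first replicate; 1 = infected wells without compound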
# Active calls of the source: *; i = inactive; x = no result given.
SMILES,GALR2 ag,RGS16-Gao HTS,Insulin prom inh,Insulin prom inh cell count,PKD1 inh,HSV augment,HSV augment primary fold
S=c1[nH]nc(Cc2ccc(Br)cc2)n1/N=C/c1ccc(Cl)cc1,x,98.0,31.6,91.3,9.6,i,1.03
COc1ccc(NC(=O)C2CCCCN2N)cc1OC (configuration not stated),-3.6,100.0,-294.6,60.0,5.2,i,1.01
O=C(NCc1ccccn1)C1CCC(=O)N1C1CCCCC1 (configuration not stated),-1.3,68.0,x,x,-13.6,i,1.08
Cc1ccc(C(C(=O)NC2CCCCC2)N(Cc2cccnc2)C(=O)C2COc3ccccc3O2)o1 (configuration not stated),-0.8,99.7,15.4,142.7,-3.7,i,1
COC(=O)C1=C(N)Oc2cc(C)[nH]c(=O)c2C1c1cc(OC)c(OC)c(OC)c1 (configuration not stated),-2.2,100.5,x,x,-10.9,i,1.02
COCCN1CCn2c(nc3cc(NC(=O)NC4CCCCC4)ccc32)C1,-0.6,99.9,18.2,142.0,-3.8,i,1.12
CCn1c(/C=N/c2nc3ccccc3n2C)nc2ccccc21,0.2,160.3,-25.6,66.3,-6.3,i,0.97
CN(C)S(=O)(=O)c1cccc(NC(=O)c2cc(-c3cccs3)nn2-c2cccc(Cl)c2)c1,-1.6,84.4,39.3,80.3,-13.9,i,0.62
CCN(C1CCS(=O)(=O)C1)S(=O)(=O)c1cccs1 (configuration not stated),-1.7,101.8,13.6,74.3,-5.6,i,0.86
Cc1cccc(Nc2ccccc2C(=O)OCC(=O)NCc2ccco2)c1C,-1.4,91.8,26.9,103.7,-4.5,i,0.84
CCCCCCNC(=O)CCNC(=O)c1cc(OC)c(OC)c(OC)c1,-0.7,100.2,x,x,-6.4,i,1
CC(C)N(Cc1cn(C)nc1-c1cccc(Cl)c1)CC1CCC(=O)N1 (configuration not stated),x,105.9,x,x,4.2,i,1.04
Cn1nnnc1SCC(=O)c1cccs1,-0.3,103.8,9.1,90.4,0.0,i,1.13
Cc1ccc(S(=O)(=O)NCC(=O)OCc2ccccc2)cc1,x,102.2,x,x,-3.0,i,0.99
COc1ccc(-n2c(C)cc(C3=NNC(=NC4CC4)SC3)c2C)cc1,x,101.5,x,x,-3.4,i,0.95
Cc1ccc(NC(=S)NNC(=O)c2ccccc2O)c(C)c1,x,99.0,x,x,-8.4,i,0.99
O=c1c2ccccc2c(-c2ccccc2)nn1-c1cc(Cl)ccc1[N+](=O)[O-],-2.0,109.0,x,x,-7.0,i,0.88
CCN1CCN(C(=O)CCc2ccc(S(=O)(=O)NCCc3ccccc3)cc2)CC1,-1.1,100.3,-388.9,40.5,-3.5,i,0.94
CN1CCCN(CC(O)COCc2cccs2)CC1 (configuration not stated),-1.6,104.1,27.3,104.7,-7.0,i,1.05
CCOC(=O)c1cc2c(C)n(-c3ccc(N(C)C)cc3)c(C)c2cc(C(=O)OCC)c1=O,-2.5,107.5,-20.0,100.2,3.6,i,0.8
Cc1ccc(S(=O)(=O)NC(=O)c2cc(C)n(C3CC3)c2C)cc1,x,103.8,x,x,-3.2,i,0.97
O=C1OC(OC2CCCCC2)(c2ccccc2)c2ccccc21 (configuration not stated),-1.6,99.2,x,x,5.9,i,1
COc1ccc(OC)c(/C=C/C(=O)OCC(=O)c2c(N)n(C)c(=O)n(C)c2=O)c1,x,103.9,55.0,188.8,-5.8,i,0.79
CC(OC(=O)C1=COCCO1)C(=O)Nc1cccc(S(=O)(=O)N2CCOCC2)c1 (configuration not stated),x,101.7,x,x,x,i,0.98
CCCCCC(=O)N1CC2(CC(c3cccc(NC(=O)CC)c3)=NO2)C[C@H]1C(N)=O (some centres not stated),x,100.4,x,x,x,i,0.99

# Molecules listed so far that contain two or more sulfur atoms (three):
SMILES,GALR2 ag,RGS16-Gao HTS,Insulin prom inh,Insulin prom inh cell count,PKD1 inh,HSV augment,HSV augment primary fold
CN(C)S(=O)(=O)c1cccc(NC(=O)c2cc(-c3cccs3)nn2-c2cccc(Cl)c2)c1,-1.6,84.4,39.3,80.3,-13.9,i,0.62
CCN(C1CCS(=O)(=O)C1)S(=O)(=O)c1cccs1 (configuration not stated),-1.7,101.8,13.6,74.3,-5.6,i,0.86
Cn1nnnc1SCC(=O)c1cccs1,-0.3,103.8,9.1,90.4,0.0,i,1.13

# More structures follow:
SMILES,GALR2 ag,RGS16-Gao HTS,Insulin prom inh,Insulin prom inh cell count,PKD1 inh,HSV augment,HSV augment primary fold
Cc1cc(-c2ccccc2)c2c(n1)sc1c(O)cc(=O)[nH]c12,x,106.8,x,x,x,i,0.99
CCN1CCN(C(=O)c2ccc(Cl)c(S(=O)(=O)N3CCOCC3)c2)CC1,-2.5,102.4,-500.0,46.6,-3.1,i,0.78
Cc1ccc(NC(=O)C23CCC(C)(C(=O)[C@H]2Br)C3(C)C)cc1 (some centres not stated),x,96.1,x,x,x,i,0.83
O=C(COC(=O)c1ccc(Cl)c(S(=O)(=O)N2CCCC2)c1)NC1CCCCC1,x,90.5,x,x,-1.6,i,1
Cc1cc(C)n2nc(SCC(=O)N3CCc4ccccc43)nc2n1,-0.8,104.4,29.0,93.3,-13.4,i,1.04
CCC(C)C(NC(N)=O)C(=O)NC1CCC(C)CC1 (configuration not stated),x,105.0,-61.9,121.2,-5.8,i,1.15
CN(C)/N=C/c1ccc(N2CCOCC2)cc1,x,110.2,x,x,-0.9,i,1.02
Cc1ccc(-c2ccc(CCC(=O)O)n2NC(=O)c2cccs2)cc1,-1.3,108.4,-52.4,104.9,-0.9,i,1
O=C(O)COc1ccc(-c2nccc(-c3cccs3)n2)cc1,-0.8,91.3,x,x,-8.8,x,x
O=C(CN1C(=O)c2ccccc2S1(=O)=O)N1CCN(c2ccc(F)cc2)CC1,-0.1,102.0,64.3,88.5,-0.3,i,0.88
COc1cc(OC)cc(C(=O)OCCNC(=O)Cn2cnc3c2c(=O)n(C)c(=O)n3C)c1,x,104.6,x,x,1.2,i,0.84
CCOC(=O)COc1ccc2nsnc2c1,-1.5,98.4,x,x,-6.1,i,1.02
COCCN(C(=S)Nc1c(C)cc(C)cc1C)C(C)c1cccs1 (configuration not stated),x,103.0,35.7,92.0,1.0,i,0.93
COc1ccc2c(c1OC)C(=O)c1ccccc1C2=O,-1.3,97.9,34.8,87.0,-2.0,i,0.93
COc1cc([N+](=O)[O-])ccc1NC(=O)C[n+]1ccccc1C,-2.7,105.6,38.7,52.4,4.4,i,1.02
COc1ccccc1C(=O)NNC(=O)c1ccccc1[N+](=O)[O-],-0.3,100.2,19.4,55.4,-6.6,i,0.98
COc1cc(-c2nnc(SCC(=O)c3cc(C)n(CC4CCCO4)c3C)o2)cc(OC)c1OC (configuration not stated),-1.2,100.8,58.3,110.6,-4.6,i,0.92
Nc1c(-c2ccc(Cl)cc2)cnn1-c1cc(C(F)(F)F)cc(C(F)(F)F)c1,x,101.4,x,x,x,i,0.98
Cc1nn(C(=O)C2CC2)c(C)c1Sc1ccc(Cl)cc1,-1.6,103.4,x,x,-3.9,i,1
NCCCC[C@H]1CNC(=O)C(=O)N1CCc1cccc(F)c1,x,93.7,x,x,x,i,0.94
COc1ccc(CCNC(=O)CSc2nc3ccccc3o2)cc1,-2.4,96.0,0.0,138.1,-10.2,i,1
COc1nc(NCCc2ccc(OC)c(OC)c2)nc(OC)n1,-0.5,105.4,-33.3,76.7,-6.2,i,0.82
COc1cc(CNCc2cccs2)ccc1OCC(=O)NC(C)(C)C,-2.5,98.2,-125.0,150.1,5.9,i,1.18
Cc1cccn2c(=O)c3cc(C(=O)NC4CCCC4)c(=N)n(C4CCCC4)c3nc12,5.0*,161.6,-84.6,84.7,-5.3,i,0.72
N#C/C(=C(/O)CN1CCOCC1)c1nc(-c2ccccc2)cs1,-0.8,97.9,-37.5,56.5,-8.8,i,0.9
# The results go on.
SMILES,GALR2 ag,RGS16-Gao HTS,Insulin prom inh,Insulin prom inh cell count,PKD1 inh,HSV augment,HSV augment primary fold
COC(=O)c1sc(NC(=O)/C=C/c2ccccc2Cl)nc1C,x,98.1,x,x,2.9,i,0.93
CN(C)C(=O)CSc1nc2ccccc2n1CC(=O)N1CCN(c2ccccc2)CC1,-2.9,106.5,-24.3,255.1,-1.8,i,0.91
Cc1ccc(-c2csc(NC(=O)CSc3nc4ccccc4o3)n2)cc1,0.3,104.7,-55.3,72.4,-8.8,i,0.92
CCn1cc(C(=O)OCC(=O)c2ccccc2)c(=O)c2ccc(C)nc21,x,95.8,-16.7,76.5,-1.7,i,1.03
O=C(O/N=C(\c1ccccc1)c1ccncc1)c1ccccc1F,x,105.8,x,x,4.5,i,1
COC(=O)c1sccc1NC(=S)Nc1cc(C)cc(C)c1,-1.1,97.0,53.6,95.4,-0.1,i,0.94
COc1ccc(NC(=O)C2CC(=O)OC23CCCCC3)cc1 (configuration not stated),-3.0,111.7,-3.2,69.5,-11.1,i,1
COCCCNC(=S)Nc1ccccc1C,0.0,107.3,27.6,127.2,-7.5,i,1.06
Cc1ccc(OCC(=O)Nc2cc(C)on2)c([N+](=O)[O-])n1,x,98.7,x,x,-8.1,i,0.97
COc1ccc(-c2c(C#N)c(N)nc3c2c(=O)n(C)c(=O)n3C)cc1Cl,-1.7,x,-180.9,100.5,-0.7,i,0.93
CC(=O)Nc1cc(C(=O)NCc2ccco2)ccc1Sc1ccc(C)cc1,-0.4,104.9,30.8,74.3,-4.2,i,0.97
COc1ccc(OC(C)C(=O)Nc2cccc(F)c2)cc1 (configuration not stated),x,103.7,x,x,-3.1,i,0.98
CCOC(=O)C1=C(CNCCOc2ccc(OC)cc2)NC(=O)NC1c1ccc2c(c1)OCO2 (configuration not stated),x,98.8,x,x,-0.2,i,0.9
N#CCSc1nc2ccccc2c(=O)n1CCC(=O)NC1CCCCC1,-1.0,100.0,x,x,9.5,i,0.77
Cc1cc(C(=O)CSc2ccc(F)cc2)cc(C)c1OC(=S)N(C)C,-3.1,96.2,18.8,218.9,3.6,i,1.02
O=C1NC(=O)/C(=C/c2ccccc2OCc2ccccc2)S1,x,100.1,x,x,-1.8,i,1.02
O=C(NCc1cccnc1)c1ccc(S(=O)(=O)N2CCCCCC2)cc1,x,88.4,x,x,2.2,i,0.92
Cc1c(Br)cc(C(=O)N2CCN(CCO)CC2)c(C)c1C,-1.5,102.0,6.2,135.0,-0.9,i,0.99
COc1ccc(N(CC(=O)N/N=C/c2cccc3c2OCCO3)S(=O)(=O)c2ccc(NC(C)=O)cc2)cc1,0.7,96.3,59.5,55.6,-14.8,i,0.98
Cn1cnnc1Sc1ccc(/C=C(\CC(=O)O)c2nc3ccccc3s2)cc1[N+](=O)[O-],x,101.9,x,x,x,i,1.23
CC(C)(C)SCCNC(=O)COc1ccccc1,-3.0,104.2,-170.0,92.8,-8.9,i,1.03
CCOc1ccc(NC(=O)Nc2cc(C)ccc2OC)cc1,-1.5,30.4,20.0,111.4,-8.7,i,0.85
Cc1ccc(S(=O)(=O)NCCOc2nc(N(C)C)nc(N(C)C)n2)cc1,x,103.3,x,x,x,i,0.91
CC(C)OC(=O)c1cc(NC(=O)c2nn(C)cc2Br)cc(C(=O)OC(C)C)c1,-0.5,94.7,42.9,125.6,-14.4,i,0.97
CCCC1=Nc2cc(C(=O)NCCCOCC)ccc2Sc2ccccc21,-0.5,108.4,-16.3,6.7,-14.2,i,0.63
# Next part:
SMILES,GALR2 ag,RGS16-Gao HTS,Insulin prom inh,Insulin prom inh cell count,PKD1 inh,HSV augment,HSV augment primary fold
CS/C(=N\S(=O)(=O)c1cccs1)Nc1ccc(Cl)cc1,-1.1,99.5,x,x,-0.2,i,0.91
CCOC(=O)CSc1c(-c2ccccc2)c2cc(Cl)ccc2[nH]c1=O,0.7,96.3,x,x,-0.8,i,0.83
O=C(COc1ccc(Cl)cc1)NCc1nnc(SCC(=O)NCCc2ccccc2)o1,-2.5,111.7,x,x,-14.2,i,1.02
CC(O)Cc1cn(CC(=O)N2CCNCC2)nn1 (configuration not stated),x,93.4,x,x,x,i,0.85
CCc1nnc(NC(=O)c2ccc(NC(=O)C(C)C)cc2)s1,x,105.6,x,x,-0.2,i,0.94
C=C(C)C(C)(C#CCN1CCCC1)OC(C)=O (configuration not stated),-0.5,94.2,-18.5,138.4,-7.3,i,0.99
S=C1NCN(CCc2ccccc2)CN1Cc1ccccc1,x,97.4,x,x,x,i,0.77
CCCCC1=CC2=C(c3ccco3)C(=O)C(C)(OC(=O)c3ccc(OC)cc3)C(=O)C2=CN1C(CO)CO (configuration not stated),x,103.0,x,x,x,i,1
CCOc1ccc(NS(=O)(=O)c2cc(C)c(C)cc2C)cc1,x,102.0,x,x,-9.6,i,1.05
Nc1cc(-c2nc3ncccc3o2)ccc1Cl,-1.3,103.1,53.9,92.5,5.5,i,0.83
CCN(CC)C(=O)CSc1nc(O)cc(=O)n1C,-1.5,99.0,27.5,110.4,-5.4,i,0.96
Cc1ccc(-c2c[n+](CC(=O)Nc3ccccc3C)c3n2CCC3)cc1,x,99.1,x,x,x,i,1.02

# Compound activity (PubChem BioAssay)
